Ecoli growth: blocks Escherichia coli growth | OD600, 23 h; stronger effect = lower value | AID 1053175 | 330,000 tested, 0.21% active | OD600 absorbance (concentration not given with the values);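 active means OD600 absorbance below the run mean of sample wells minus 3.6 SD, in any replicate, cut at about 0.56 in these data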;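 further: stock transfer was 300 nL into about 60 µL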
UCH37 inh: human UCH37 deubiquitinating enzyme inhibition | inhibition, % (concentration not given with the values) | 330,000 tested, 0.33% active | Q9Y5K5 | AID 588478 | purified proteasome/UCH37, Ub-AMC cleavage fluorescence;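 active means mean of two replicates above 20%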;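 further: 0% = compound-free wells with enzyme and 100% = wells lacking proteasome; stock transfer was 100 nL into about 20 µL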
Target sequence (Q9Y5K5 whole entry, looked up): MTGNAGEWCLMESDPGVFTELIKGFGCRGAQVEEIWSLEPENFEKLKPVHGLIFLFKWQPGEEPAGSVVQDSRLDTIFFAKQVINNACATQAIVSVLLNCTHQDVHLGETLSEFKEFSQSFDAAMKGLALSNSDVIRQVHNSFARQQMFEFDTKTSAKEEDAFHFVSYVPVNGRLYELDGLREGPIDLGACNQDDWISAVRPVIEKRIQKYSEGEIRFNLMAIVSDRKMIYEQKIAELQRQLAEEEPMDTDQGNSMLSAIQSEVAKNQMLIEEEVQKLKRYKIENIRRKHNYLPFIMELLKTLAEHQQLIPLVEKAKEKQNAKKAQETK
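Material: human UCH37 enzyme supplied as purified proteasome complex / Amount: 0.15 nM proteasome as dispensed / Buffer or medium: pH 7.4 Tris-HCl (50 mM) with ovalbumin, ATP-MgCl2, DTT / Times: preincubation 30 min, reaction 25 min, room temperature / Technique: AMC fluorescence from Ub-AMC cleavage, excitation 355 nm, emission 460 nm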
* marks the source's active call; other numbers are inactive results; · = not tested or not shown; & = joins results of further samples.

SMILES | Ecoli growth | UCH37 inh
C=CC1=C(C(=O)O)N2C(=O)[C@@H](NC(=O)C(=NO)c3csc(N)n3)[C@H]2SC1 | · | 2.2
Cc1onc(-c2ccccc2Cl)c1C(=O)NC1C(=O)N2C1SC(C)(C)C2C(=O)O (stereo not drawn) | 0.66&0.62 | ·
CN(C)CCCSc1ccccc1NC(=O)C=Cc1ccccc1 | 0.65 | ·
CC(=O)C1CCC2C3CC(C)C4=CC(=O)CC[C@]4(C)C3C(O)C[C@]12C (stereo partly drawn) | 0.67 | ·
CC1(C)Oc2ccc(C#N)cc2C(N2CCCC2=O)C1O (stereo not drawn) | 0.69 | ·
C=C1c2cccc(O)c2C(=O)C2C(=O)[C@]3(O)C(=O)C(C(N)=O)C(=O)C(N(C)C)C3C(O)C12 (stereo partly drawn) | 0.067* | ·
O=C(O)C1C(O)CCC2CN3CCc4c([nH]c5ccccc45)C3CC21 (stereo not drawn) | 0.69 | ·
CCCC(NC(C)C(=O)N1C(C(=O)O)CC2CCCCC21)C(=O)OCC (stereo not drawn) | 0.69 | ·
COc1cc(N)c(Cl)cc1C(=O)NC1CCN(CCCOc2ccc(F)cc2)CC1OC (stereo not drawn) | 0.71 | ·

Exported with the structure last: four of the compounds above
Ecoli growth	UCH37 inh	SMILES
0.69	·	CC1(C)Oc2ccc(C#N)cc2C(N2CCCC2=O)C1O (stereo not drawn)
0.067*	·	C=C1c2cccc(O)c2C(=O)C2C(=O)[C@]3(O)C(=O)C(C(N)=O)C(=O)C(N(C)C)C3C(O)C12 (stereo partly drawn)
0.69	·	O=C(O)C1C(O)CCC2CN3CCc4c([nH]c5ccccc45)C3CC21 (stereo not drawn)
0.69	·	CCCC(NC(C)C(=O)N1C(C(=O)O)CC2CCCCC21)C(=O)OCC (stereo not drawn)

Looked up above:
For Ecoli growth, `CN(C)CCCSc1ccccc1NC(=O)C=Cc1ccccc1` shows 0.65
For Ecoli growth, `Cc1onc(-c2ccccc2Cl)c1C(=O)NC1C(=O)N2C1SC(C)(C)C2C(=O)O` (stereo not drawn) shows 0.66&0.62

Source: PubChem BioAssay

The list is partial (hit frequency here may not be typical).
